# Screening results deposited in PubChem BioAssay by National Center for Advancing Translational Sciences (NCATS).
# Six1-Eya2 inh: blocks human Six1 binding to Eya2. AlphaScreen GST-Six1/His-Eya2 binding, biochemical; hits give low values; control for the full effect not named in the record. activity change, % (concentration not given with the values). actives 0.56% (n = 360,000); in the data active = activity change below about -65%; inconclusive = about -30% to -65%; inactive = above about -30%; further: on the % scale 0 is the no-effect control and ±100 the full control effect
#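 GST-Six1 + His-Eya2 (5X stock: 250/500 nM); Tris pH 8.0, 300 mM NaCl, 0.05% BSA, 0.02% Tween 20; GSH donor/Ni acceptor beads; 1 h 37 °C dark; AlphaScreen readout.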
# CtBP-E1A inh: inhibitors of CtBP/E1A interaction. actives 0.49% (n = 340,000). AlphaScreen GST-E1A/His-CtBP binding, 1536-well; hits give low values; control for the full effect not named in the record. activity change, % (concentration not given with the values); in the data active means activity change below about -65%; inconclusive means about -30% to -65%; inactive means above about -30%; further: on the % scale 0 is the no-effect control and ±100 the full control effect
#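 AlphaScreen with 125 nM GST-E1A and 125 nM His-CtBP (5X stocks) in Tris pH 8.0, 300 mM NaCl, BSA, Tween 20, TCEP. Compounds preincubated 2 h at 37 deg C, then glutathione donor/nickel acceptor beads added for 1 h at 37 deg C in dark.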
# PINK1 expr mod: PINK1 expression modulation; PINK1 immunofluorescence, high-content cytometry, 24 h; Potency, µM (titrated, usually from 76.6 µM), for the others: at the top dose activation (PINK1 increase), most hits filed as activators; actives 0.2% (n = 410,000); AID 624263; active = well fitted activation curve with a large enough effect; inconclusive = small, poorly fitted or top-dose-only effect; inactive = flat fitted curve, though single readings scatter; cell line not stated here;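 further: potency means the concentration at half of the fitted maximal effect; % of control where 0% means no effect; nearly all actives have a fitted effect of over 65% in size; a mitochondrial uncoupler was the plate control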
#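 Fluorescence from anti-PINK1 antibody, together with nuclear and cell stains, was scanned on a laser-scanning cytometer. Before staining, stable-line cells were incubated 24 hours with compounds at 5 concentrations; primary antibody 12 h at 10 degrees C.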
# TRPML1 blocker: inhibitors of human TRPML1 channel | AID 624415 | Q9GZU1 | activity change, negative = inhibition, % (concentration not given with the values) | TRPML1-inducible cells, Ca2+ dye fluorescence, FDSS; hits give low values; inhibition of EC80 agonist-evoked calcium signal | actives 0.02% (n = 390,000); in the data active means activity change below about -50%; inconclusive means about -30% to -50%; inactive means above about -30%;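 further: stimulus is agonist 54-4 at its EC80 concentration; on the % scale 0 is the no-effect control and ±100 the full control effect; compound concentration not given in the record; the text of the record puts the active cut at -80%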
# Target sequence (Q9GZU1 whole entry, looked up): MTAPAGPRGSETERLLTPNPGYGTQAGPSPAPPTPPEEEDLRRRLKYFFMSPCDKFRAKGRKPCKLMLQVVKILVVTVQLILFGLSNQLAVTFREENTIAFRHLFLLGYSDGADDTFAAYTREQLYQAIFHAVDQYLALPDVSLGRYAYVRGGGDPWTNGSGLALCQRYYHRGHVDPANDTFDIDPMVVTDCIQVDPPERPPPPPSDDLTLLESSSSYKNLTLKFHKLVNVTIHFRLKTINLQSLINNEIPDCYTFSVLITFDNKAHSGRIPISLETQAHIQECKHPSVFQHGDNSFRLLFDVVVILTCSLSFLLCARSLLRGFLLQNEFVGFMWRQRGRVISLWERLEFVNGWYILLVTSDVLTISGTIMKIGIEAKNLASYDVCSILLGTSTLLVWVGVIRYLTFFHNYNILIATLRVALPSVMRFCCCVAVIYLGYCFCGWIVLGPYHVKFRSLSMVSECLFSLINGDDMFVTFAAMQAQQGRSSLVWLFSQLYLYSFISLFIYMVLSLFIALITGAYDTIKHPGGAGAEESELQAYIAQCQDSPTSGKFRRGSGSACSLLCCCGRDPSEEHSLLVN
#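 TRPML1-DL cells, Tet-induced overnight (~16 h, 37 °C) at 1,500 cells/well, were loaded with Ca8 no-wash dye plus quencher for 45-90 min at room temperature. Compounds were pinned during FDSS kinetic reading; agonist 54-4 at EC80 (4 uM final) then added.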
# D2 agonist: activates the human D2 dopamine receptor; activation, % (no concentration beside the values); actives 0.084% (n = 360,000); P14416; DiscoveRx PathHunter D2 beta-arrestin, luminescence, 90 min; 100% = 57 uM dopamine signal; in the data active = activation above about 40%; inconclusive = about 15% to 40%; inactive = below about 15%; further: compound concentration not given in the record; the text of the record calls up to 30% inactive
# Target sequence (P14416 whole entry, looked up): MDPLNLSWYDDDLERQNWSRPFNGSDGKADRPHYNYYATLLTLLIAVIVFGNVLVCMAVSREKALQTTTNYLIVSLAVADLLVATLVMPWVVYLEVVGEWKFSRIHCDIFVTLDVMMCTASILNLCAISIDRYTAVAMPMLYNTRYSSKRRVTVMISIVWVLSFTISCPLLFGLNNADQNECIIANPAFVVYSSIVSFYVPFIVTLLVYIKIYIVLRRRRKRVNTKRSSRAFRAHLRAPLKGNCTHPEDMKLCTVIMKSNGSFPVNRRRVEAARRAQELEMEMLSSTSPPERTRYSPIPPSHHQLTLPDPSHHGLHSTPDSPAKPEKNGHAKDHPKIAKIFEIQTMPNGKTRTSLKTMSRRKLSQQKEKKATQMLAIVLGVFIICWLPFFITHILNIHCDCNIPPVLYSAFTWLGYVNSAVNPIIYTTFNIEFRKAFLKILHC
#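 Agonist mode: compounds alone added to overnight-plated D2 PathHunter cells for 90 min at 37 C, with 57 uM final dopamine (EC100) defining full response. Beta-arrestin recruitment detected by chemiluminescent reagent, read after 1 h at ambient temperature.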
# TRPML1 ag: human mucolipin-1 channel agonism; activation, % (concentration not given with the values); actives 0.12% (n = 410,000); Q9GZU1; TRPML1-expressing cells, Ca2+ dye fluorescence, FDSS; host cell line not named in the record; reference of the full effect not given here; in the data active = activation above about 50%; inconclusive = about 30% to 50%; inactive = below about 30%; further: 0% is about no effect; the text of the record puts the active cut at 80%
#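 Calcium fluorescence on an FDSS kinetic reader gave the read-out. Tet-induced TRPML1-DL cells were plated overnight, dye-loaded (Ca8 with quencher, 45-90 min, room temperature, dark), then read 110 s after compound addition, and again 110 s after 4uM final 54-4 (EC80).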
# The depositor's hits bear a star; ? = inconclusive; · = not tested or not shown; & = joins results of further samples; [ ] = remark or other dose.
1: COc1ccc(C(C(=O)NC2CCCCC2)N(C(=O)c2cccs2)c2ccc3c(c2)OCO3)cc1 (stereo not given)
2: CCCC(=O)Nc1ccc2c(c1)nc(CN1CCN(C(=O)OCC)CC1)n2C(C)C
3: CCOC(=O)C1CCN(CC(=O)Nc2c(C(=O)OC)[nH]c3cccc(Cl)c23)CC1
4: CCCn1c(SCC(=O)Nc2nc3c(s2)CCCC3)nc2c1c(=O)n(C)c(=O)n2C
5: O=[N+]([O-])c1ccc(C(=S)N2CCN(c3ccc(F)cc3)CC2)cc1
assay / compound,1,2,3,4,5
Six1-Eya2 inh,3,·,-1,6,?
CtBP-E1A inh,5,·,2,-2,7
PINK1 expr mod,·,8.0%,3.2%[38.3 µM],·,-1.2%
TRPML1 blocker,0,-12,2,5,45
D2 agonist,-0.8,·,1.0,3.1,-0.5
TRPML1 ag,1.3,-0.2,0.3,-0.3,1.5

6: CCc1cc2c(=O)n(CCC(C)C)c(=S)[nH]c2s1
7: CCOc1ccc(CNS(=O)(=O)c2ccc3c(c2)CCCN3C(C)=O)cc1OC
8: O=C(Cc1cccs1)N1CCN=C1SCc1ccccc1F
9: CCN(CC)C(=O)c1cnn(-c2ccccc2)c1NC(=O)c1ccco1
10: CCCN(CC(=O)Nc1ccccc1C)C(=O)c1ccc(C)c(S(=O)(=O)N2CCCCC2)c1
assay / compound,6,7,8,9,10
Six1-Eya2 inh,8,·,-2,-2,0
CtBP-E1A inh,1,·,0,0,0
PINK1 expr mod,5.3%,-2.0%,0.0%,0.3%[38.3 µM],-0.4%
TRPML1 blocker,21,-9,3,-26,11
D2 agonist,-19,·,-13,-3.3,-2.4
TRPML1 ag,1.9,1.4,-0.2,0.1,1.8

11: CCc1c(C)nc2ncnn2c1NCCc1ccc(OC)cc1
12: CS(=O)(=O)N1CCCC(C(=O)Nc2ccc(F)cc2F)C1 (stereo not given)
13: CCCCC1=CC2=CC(=O)C(C)(OC(=O)CC)C(=O)C2=CN1CCCOC(C)C (stereo not given)
14: Cc1ccc(NC(=O)COC(=O)Cn2cnc3c2c(=O)n(C)c(=O)n3C)c(Cl)c1
15: CCOc1ccc(C(=O)NCC(=O)NNC(=O)c2cc(C)oc2C)cc1OCC
assay / compound,11,12,13,14,15
Six1-Eya2 inh,-8,-4,0,-2,-3
CtBP-E1A inh,-9,-23,-3,-13,-8
PINK1 expr mod,9.3%[38.3 µM],1.7%,1.2%,-1.1%,1.0%
TRPML1 blocker,19,10,7,27,14
D2 agonist,2.8,-8.0,3.8,0.9,-5.0
TRPML1 ag,0.4,-0.6,0.2,0.7,-0.4

16: COc1ccc(C(=O)NC2CCSc3ccccc32)cc1S(=O)(=O)N1CCOCC1 (stereo not given)
17: COc1ccc(OC)c(NC(=O)CSc2nnc3ccc4ccccc4n23)c1
18: Cc1nc2nc(SCC(=O)NCc3ccco3)nn2c(C)c1Cc1c(F)cccc1Cl
19: CCN(C(=O)Cn1c(=O)n(Cc2ccc3c(c2)OCO3)c(=O)c2ccc(C(=O)NC3CCCCC3)cc21)c1cccc(C)c1
20: COc1ccc2c(c1)CCc1cn3nc(C)cc3nc1-2
assay / compound,16,17,18,19,20
Six1-Eya2 inh,-14,·,-3,·,31
CtBP-E1A inh,-1,·,-2,·,32
PINK1 expr mod,1.4%,0.6%,1.9%,20%,6.3%
TRPML1 blocker,2,2,-8,7,-4
D2 agonist,-0.2,·,1.2,·,-2.0
TRPML1 ag,-0.4,-0.1,-0.9,1.7,0.3

21: Cc1cc(OCc2nnc(SC(C)C(=O)O)n2Cc2ccccc2)ccc1Cl (stereo not given)
22: O=C(COc1ccc(Cl)cc1)Nc1ccccc1C(=O)NCc1ccco1
23: COc1cccc(C(=O)NC(=NCCc2c[nH]c3ccc(OC)cc23)Nc2nc(C)cc(C)n2)c1
24: O=C(NCCc1ccncc1)Nc1ccc(F)cc1
25: C=CCn1c2ccccc2c2nnc(SCc3[nH]c(=O)[nH]c3C(=O)CCCCC(=O)OCC)nc21
assay / compound,21,22,23,24,25
Six1-Eya2 inh,9,-2,·,3,-13
CtBP-E1A inh,4,12,·,4,-15
PINK1 expr mod,0.6%,16%[38.3 µM],-1.3%,0.5%,-1.4%
TRPML1 blocker,6,0,7,2,3
D2 agonist,-3.3,-0.2,·,1.1,0.2
TRPML1 ag,-0.4,-0.5,1.5,-1.0,0.3

26: CC(=O)N1CCN(C(=O)c2cc(S(=O)(=O)N(C)c3ccc(F)cc3)ccc2Cl)CC1
27: COCCCNC(=O)Cc1ccc(S(=O)(=O)N2CCOCC2)s1
28: CC1CCN(C(=O)c2ccc3c(c2)OCCO3)CC1
29: Cc1cc(SCC(=O)OCC(=O)N2CCN(C(=O)c3ccco3)CC2)c(C)cc1Br
30: CC1CN(CCCCSc2ccccc2)CC(C)O1 (stereo not given)
assay / compound,26,27,28,29,30
Six1-Eya2 inh,3,1,5,-2,0
CtBP-E1A inh,0,5,-1,-1,·
PINK1 expr mod,-0.9%,-0.2%,1.8%,4.2%[38.3 µM],2.3%
TRPML1 blocker,8,-12,-6,9,·
D2 agonist,-2.0,1.6,-3.9,-1.2&-2.3,3.2
TRPML1 ag,-0.9,0.8,-0.3,0.6,·

31: CC(=O)NC12CC3CC(C1)CC(C(=O)Nc1nccs1)(C3)C2
32: Cc1ccc(CNC(=O)CCCn2nc(C)c3c(C)n(-c4ccccc4)nc3c2=O)cc1
33: CCN1CCCC1CNCc1cccc(OC)c1OCc1ccccc1 (stereo not given)
34: O=C1C2C3C=CC(CC3)C2C(=O)N1c1ccc2c(c1)OCO2 (stereo not given)
35: N#CCCN(CCN1CCCC1)S(=O)(=O)c1ccc(-c2ccc([N+](=O)[O-])cc2)cc1
assay / compound,31,32,33,34,35
Six1-Eya2 inh,-5,-1,1,3,-1
CtBP-E1A inh,0,2,-5,6,-21
PINK1 expr mod,-0.6%,1.7%&-0.6%,-0.7%,-0.5%,0.0%
TRPML1 blocker,7,-8&2,4,6,3
D2 agonist,-1.6,0.9,-3.5,-1.0,-19
TRPML1 ag,-0.5,1.4&0.3,-0.4,-0.4,-0.7

36: Cc1cccc(C)c1NC(=O)CCCn1c(=O)c2cccn2c2ccccc21
37: COc1ccc(C2=CC(=O)OC3(CCCCC3)O2)cc1
38: COC(=O)c1cn(NC(=O)c2cnccn2)c(=O)c2ccccc12
39: NC(CSC1(c2ccc(Cl)cc2)c2ccccc2-c2ccccc21)C(=O)O (stereo not given)
40: COc1ccc(CNC(=O)CN(C(=O)c2cc3sccc3n2C)C2CCCC2)cc1
assay / compound,36,37,38,39,40
Six1-Eya2 inh,·,4,?,-13,-1
CtBP-E1A inh,·,6,?,9,3
PINK1 expr mod,-0.5%,1.9%,-0.4%,15%,·
TRPML1 blocker,-9,15,17,-14,2
D2 agonist,·,-2.6,-2.0,-0.8,-4.8
TRPML1 ag,3.5,0.8,0.5,1.5,0.3

# Sorted by length of the SMILES (ascending): some entries from above
30: CC1CN(CCCCSc2ccccc2)CC(C)O1 (stereo not given)
24: O=C(NCCc1ccncc1)Nc1ccc(F)cc1
28: CC1CCN(C(=O)c2ccc3c(c2)OCCO3)CC1
37: COc1ccc(C2=CC(=O)OC3(CCCCC3)O2)cc1
27: COCCCNC(=O)Cc1ccc(S(=O)(=O)N2CCOCC2)s1
38: COC(=O)c1cn(NC(=O)c2cnccn2)c(=O)c2ccccc12
31: CC(=O)NC12CC3CC(C1)CC(C(=O)Nc1nccs1)(C3)C2
assay / compound,30,24,28,37,27,38,31
Six1-Eya2 inh,0,3,5,4,1,?,-5
CtBP-E1A inh,·,4,-1,6,5,?,0
PINK1 expr mod,2.3%,0.5%,1.8%,1.9%,-0.2%,-0.4%,-0.6%
TRPML1 blocker,·,2,-6,15,-12,17,7
D2 agonist,3.2,1.1,-3.9,-2.6,1.6,-2.0,-1.6
TRPML1 ag,·,-1.0,-0.3,0.8,0.8,0.5,-0.5

36: Cc1cccc(C)c1NC(=O)CCCn1c(=O)c2cccn2c2ccccc21
39: NC(CSC1(c2ccc(Cl)cc2)c2ccccc2-c2ccccc21)C(=O)O (stereo not given)
40: COc1ccc(CNC(=O)CN(C(=O)c2cc3sccc3n2C)C2CCCC2)cc1
29: Cc1cc(SCC(=O)OCC(=O)N2CCN(C(=O)c3ccco3)CC2)c(C)cc1Br
32: Cc1ccc(CNC(=O)CCCn2nc(C)c3c(C)n(-c4ccccc4)nc3c2=O)cc1
26: CC(=O)N1CCN(C(=O)c2cc(S(=O)(=O)N(C)c3ccc(F)cc3)ccc2Cl)CC1
35: N#CCCN(CCN1CCCC1)S(=O)(=O)c1ccc(-c2ccc([N+](=O)[O-])cc2)cc1
assay / compound,36,39,40,29,32,26,35
Six1-Eya2 inh,·,-13,-1,-2,-1,3,-1
CtBP-E1A inh,·,9,3,-1,2,0,-21
PINK1 expr mod,-0.5%,15%,·,4.2%[38.3 µM],1.7%&-0.6%,-0.9%,0.0%
TRPML1 blocker,-9,-14,2,9,-8&2,8,3
D2 agonist,·,-0.8,-4.8,-1.2&-2.3,0.9,-2.0,-19
TRPML1 ag,3.5,1.5,0.3,0.6,1.4&0.3,-0.9,-0.7

# Remaining list, next part
41: COc1ccccc1/C=C1\SC(N2CCC(C)CC2)=NC1=O
42: Cc1ccc(C(=O)N/C(=C\c2cccs2)C(=O)NCCCN2CCOCC2)cc1
43: O=C(CO/N=C/c1ccc(OC(F)F)cc1)N1CCc2ccccc21
44: CCOC(=O)c1ccc(NC(=O)C2COc3ccccc3O2)cc1 (stereo not given)
45: O=C(c1cc(-c2ccccc2)on1)N1CCCC1
assay / compound,41,42,43,44,45
Six1-Eya2 inh,2,-1,13,-4,5
CtBP-E1A inh,2,3,2,15,0
PINK1 expr mod,-0.9%,-0.6%,8.6%,-1.1%,·
TRPML1 blocker,-10,-5,-23,2,-10
D2 agonist,1.4,-1.4,0.6,-1.0,1.6
TRPML1 ag,0.5,0.3,0.5,-0.1,1.3

46: Cc1ccc(S(=O)(=O)NCCc2cn3ccsc3n2)cc1
47: Cc1ccc(CNC(N)=S)cc1
48: Cc1ccc(S(=O)(=O)Nc2cccc3ncccc23)cc1
49: CC(NC(=O)Nn1cnnc1)(C(F)(F)F)C(F)(F)F
50: CCc1nccn1CCC(=O)NC1CCCc2c1cnn2-c1ccc(F)cc1F (stereo not given)
51: COc1ccc(N2CCN(C(=O)c3cc4c(=O)n(Cc5cccs5)ccc4nc3C)CC2)cc1
assay / compound,46,47,48,49,50,51
Six1-Eya2 inh,·,3,4,5,2,·
CtBP-E1A inh,·,-7,-10,0,2,·
PINK1 expr mod,0.7%,2.1%,2.0%,2.4%[38.3 µM],1.3%,5.2%
TRPML1 blocker,-8,-9,·,-5,-5,-12
D2 agonist,·,-0.5,-1.3,-0.4,-3.6,·
TRPML1 ag,0.5,-0.6,·,0.5,-0.6,2.0

# This is a random part of the collection. Share with any hit: about 1%.
